Arbovirus inh: arbovirus infection inhibition; arbovirus infection cell-based antiviral screen; inhibition, % at 10 µM; hit rate 0.37% among 200,000; AID 1251;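 active = inhibition from about 30%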;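 also: bluetongue infection of BSR cells; cell survival read as ATP light after 72 h; 0% = infected wells without compound and 100% = uninfected wells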
Mtb bLac sens: beta-lactam sensitization of Mtb H37Rv; M. tuberculosis H37Rv growth with meropenem, percent inhibition; hits of this screen are not shown here; inhibition, % at 25 µM; hit rate 0.27% among 330,000; AID 434955;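 active = about 74% or more and at least 40 points above the plate without the antibiotic, then above 30% in a dose series; inconclusive = first-round hits that could not be retested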;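 also: growth measured after seven days incubation then overnight dye step; 0% = bacteria only wells and 100% = bacteria with antibiotic; twin plates without the antibiotic show which effects depend on it; some results filed as inactive read as strong as hits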
YopH inh: inhibitors of Yersinia enterocolitica YopH tyrosine phosphatase; hit rate 0.16% among 140,000; AID 898; inhibition, %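 (about 10 µM by stock and volumes)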; fluorescence Ex485/Em525;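 active = inhibition of 50% or more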;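 also: controls were vehicle for no effect and minimum signal wells for full effect; inactives centre near -20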
RecA splice inh: inhibitors of M. tuberculosis RecA intein splicing. P9WHJ3. cell-free RecA intein splicing, fluorescence. inhibition, %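 (about 9 µM by stock and volumes)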. hit rate 0.75% among 290,000. AID 2221; in the data active = inhibition above about 30%; inconclusive = no clear call, values can overlap the other calls;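 also: 0% = vehicle wells and 100% = reference inhibitor control wells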
Target sequence (P9WHJ3 whole entry, looked up, canonical isoform): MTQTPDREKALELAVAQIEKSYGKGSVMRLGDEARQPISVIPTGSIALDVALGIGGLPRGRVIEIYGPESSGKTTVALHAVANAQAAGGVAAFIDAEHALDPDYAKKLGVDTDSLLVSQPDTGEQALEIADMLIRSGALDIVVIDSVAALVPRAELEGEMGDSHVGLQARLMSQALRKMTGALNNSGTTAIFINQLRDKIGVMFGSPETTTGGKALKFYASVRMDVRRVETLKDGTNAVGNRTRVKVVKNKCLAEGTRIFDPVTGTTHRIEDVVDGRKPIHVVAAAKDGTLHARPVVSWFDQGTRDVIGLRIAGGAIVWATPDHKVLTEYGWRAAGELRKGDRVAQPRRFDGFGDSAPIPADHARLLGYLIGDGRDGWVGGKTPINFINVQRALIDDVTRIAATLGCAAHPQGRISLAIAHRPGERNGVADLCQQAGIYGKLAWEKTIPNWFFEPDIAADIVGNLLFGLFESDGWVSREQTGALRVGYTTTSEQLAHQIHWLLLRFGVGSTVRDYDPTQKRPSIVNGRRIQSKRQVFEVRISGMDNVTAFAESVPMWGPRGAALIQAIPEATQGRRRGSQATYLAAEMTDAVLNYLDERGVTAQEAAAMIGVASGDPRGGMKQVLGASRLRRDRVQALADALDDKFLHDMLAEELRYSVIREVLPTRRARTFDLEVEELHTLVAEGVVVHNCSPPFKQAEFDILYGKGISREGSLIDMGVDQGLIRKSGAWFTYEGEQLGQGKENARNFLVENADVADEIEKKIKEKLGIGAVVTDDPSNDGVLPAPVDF
Mtb H37Rv: M. tuberculosis H37Rv growth inhibitors, H37Rv strain (AID 1626); inhibition, % at 10 µM; hits with a dose series show IC50 in µM; hit rate 0.95% among 220,000; M. tuberculosis H37Rv growth inhibition; higher % means a stronger effect;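 active = confirmed in a dose series; inconclusive = inhibition above 80% but not taken into the dose series; inactive = below 80% or under 30% at every dose of the series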;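 also: bacteria incubated seven days before Alamar blue readout; 0% = bacteria only wells and 100% = bacteria with antibiotic wells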
Arbovirus inh repeat: recorded beside Arbovirus inh, whose call it bears; inhibition, %; measured here: 10K subset replicate screen; many hits read low in the repeat;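 first of two repeat runs on a subset; 0% = infected and 100% = uninfected wells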
Active calls of the source: *; ? = inconclusive; nt = not tested or not shown. Some of the compounds tested (hit frequency here may not be typical).

SMILES	Arbovirus inh	Mtb bLac sens	YopH inh	RecA splice inh	Mtb H37Rv	others
O=C(CCc1nc(-c2ccccc2)no1)NC1CCCCC1	8.5	-11.9	-2.2	3.6	-5.5%
COc1cc(C2Nc3ccccc3C(=O)N2c2ccc(Cl)cc2)c(Cl)cc1OCC(=O)O (stereo unspecified)	3.7	-5.9	-3.2	-21.1	0.8%
CCc1cc(C(=O)NNC(=S)NC2CCCCC2)cs1	nt	3.1	nt	1.2	nt
NC(=O)C(=O)NCCCN1CCOCC1	9.6	-0.2	nt	-0.2	-3.7%
Cc1cccc(Nc2ccccc2C(=O)OCC(=O)N(C)C2CCS(=O)(=O)C2)c1C (stereo unspecified)	7.2	5.9	-23.5	1.2	1.1%
CC(=O)Nc1ccc(Sc2ncccc2C(=O)Nc2cc(Cl)cc(Cl)c2)cn1	-0.7	-4.9	-37.5	0.3	-8.1%
CN(C)S(=O)(=O)c1ccc(NC(=O)CSc2nc3ccccc3n2-c2ccccc2)cc1	-0.5	4.9	-18.9	-0.3	10.2%
CC1CCCC(NC(=O)CCC(=O)N2CCOc3ccccc32)C1C (stereo unspecified)	nt	0.9	nt	-2.7	nt
CCc1ccc2nc3sc(C(=O)Nc4nnc(CC)s4)c(N)c3cc2c1	4.5	18.4	-31.5	-5.0	11.5%
CC(C)c1ccccc1OCCNS(C)(=O)=O	5.0	-5.6	-34.5	-2.1	-4.3%
CCOC(=O)c1c(C)[nH]c(C(=O)COC(=O)[C@H](C)NC(=O)c2ccccc2Cl)c1C	-2.8	4.5	-16.2	0.8	-12.1%
NS(=O)(=O)c1ccc(NC(=O)c2cc(Cl)sc2Cl)cc1	nt	-7.4	nt	2.8	nt
CC(=O)Nc1ccc2nc(N)sc2c1	3.5	-0.4	-10.6	nt	-6.5%
Cc1ccc2nc(-c3ccccc3)c(CN3CCSCC3)n2c1	10.4	-0.1	nt	3.8	3.8%
CC/C(=N\NC(=O)CSCc1ccccc1Br)c1ccc2c(c1)OCCO2	-6.8	7.6	-10.9	-1.1	-6.7%
CCOC(=O)N1CCN(C(=O)CSC2=NS(=O)(=O)c3cc(Cl)ccc3N2)CC1	nt	-2.2	nt	0.9	nt
O=C(NNC(=S)NCc1ccco1)c1ccc(S(=O)(=O)N2CCOCC2)cc1	-1.4	1.4	nt	-2.4	-8.5%
CCOc1cc(C2C(C#N)=C(N)Oc3n[nH]c(C)c32)ccc1OCCN1CCOCC1 (stereo unspecified)	1.6	-1.4	-9.7	48.3*	-10.4%
O=C(NCCc1ccccc1)C(=O)N/N=C/c1ccc2c(c1)OCO2	-30.9	26.7	-21.7	-4.3	-7.0%
COc1cc(C2Nc3cccc4cccc(c34)N2)ccc1OC(C)=O	-1.4	17.6	-8.5	17.1	2.9%
CCn1c(SCC(=O)NC)nnc1C(C)C	-1.1	-5.2	-1.5	-1.9	-12.9%
N#Cc1nc(Cc2ccccc2)oc1NCc1ccccc1Cl	-1.8	-7.6	-21.4	15.2	nt
CCOC(=O)C(C(=O)N1CCOCC1)C1CCCCC1 (stereo unspecified)	10.3	-7.8	-23.7	-1.5	-6.7%
CCC(=O)N1N=C(c2cccs2)CC1c1ccco1 (stereo unspecified)	-4.6	-0.2	nt	0.6	4.4%
CCCn1c(SCC(=O)N2N=C3/C(=C/c4ccc(OC)cc4)CCCC3C2c2ccc(OC)cc2)n[nH]c1=O (stereo unspecified)	-13.9	70.9	-14.2	5.2	48.9%

The list goes on, overlapping the part above by six compounds.
SMILES	Arbovirus inh	Mtb bLac sens	YopH inh	RecA splice inh	Mtb H37Rv	others
COc1cc(C2Nc3cccc4cccc(c34)N2)ccc1OC(C)=O	-1.4	17.6	-8.5	17.1	2.9%
CCn1c(SCC(=O)NC)nnc1C(C)C	-1.1	-5.2	-1.5	-1.9	-12.9%
N#Cc1nc(Cc2ccccc2)oc1NCc1ccccc1Cl	-1.8	-7.6	-21.4	15.2	nt
CCOC(=O)C(C(=O)N1CCOCC1)C1CCCCC1 (stereo unspecified)	10.3	-7.8	-23.7	-1.5	-6.7%
CCC(=O)N1N=C(c2cccs2)CC1c1ccco1 (stereo unspecified)	-4.6	-0.2	nt	0.6	4.4%
CCCn1c(SCC(=O)N2N=C3/C(=C/c4ccc(OC)cc4)CCCC3C2c2ccc(OC)cc2)n[nH]c1=O (stereo unspecified)	-13.9	70.9	-14.2	5.2	48.9%
CCOC(=O)CN(C(=O)CSc1nnc2c(n1)[nH]c1ccc(F)cc12)c1ccccc1	-8.8	?	-12.0	-0.8	-2.0%
Cc1nnsc1C(=O)Nc1ccc(S(=O)(=O)N2CCCCC2)cc1	nt	-2.1	nt	-2.3	nt
CCN(CC)c1ccc(CNc2nnnn2C)cc1	nt	-4.3	nt	5.0	nt
CC(C)C(=O)Nc1ccc(NC(=S)NC(=O)c2ccc([N+](=O)[O-])cc2)cc1	8.3	88.0	-19.0	-4.8	-18.1%
C=CCn1c(SCC(=O)c2ccc(NS(=O)(=O)c3ccccc3)cc2)nnc1-c1cccs1	-6.5	-0.8	-36.2	2.2	-1.0%
COCCN(C(=O)CSc1nnc(-c2cccc(OC)c2)n1C)c1c(N)n(Cc2ccccc2)c(=O)[nH]c1=O	5.5	-1.6	nt	0.0	-0.2%
Cc1cc(C)c(C#N)c(Oc2ccccc2Br)n1	-19.6	3.0	nt	0.7	7.0%
Cc1[nH]c2ccccc2c1C(=O)Cn1c(=O)oc2ccccc21	-3.7	-12.9	-0.9	-0.6	3.8%
CC(C)c1ccc(O)c(CN2CCN(c3ccccc3)CC2)c1	-8.6	5.5	-5.7	-7.4	-10.4%
O=C(COc1ccc2ccccc2c1)N1CCN(C(=O)c2ccc([N+](=O)[O-])cc2)CC1	10.5	5.1	nt	-4.3	1.6%
CC(=O)N1N=C(C)CC1c1ccc(OCc2ccccc2)cc1 (stereo unspecified)	-6.5	0.5	-20.7	-0.6	-1.6%
CC(C)(C)c1ccc(C(=O)N2CCN(C(=O)c3ccco3)CC2)cc1	nt	?	nt	1.2	nt
CCNC(=O)c1ccc2c(c1)S(=O)(=O)c1ccccc1C2=O	-1.7	1.7	-20.3	-1.5	-0.5%
COc1cc(C)c(CN2CC=C(c3ccc(F)cc3)CC2)cc1C	nt	1.4	nt	3.5	nt
CCCNC(=O)COc1coc(CN2CCN(c3ccc(F)cc3)CC2)cc1=O	nt	-6.1	nt	1.3	nt
O=S(=O)(Nc1cccc(-c2nc3cccnc3s2)c1)c1ccc2c(c1)OCCO2	31.0*	0.5	-34.4	-1.6	-6.6%	Arbovirus inh repeat=26.5*
Cc1cc(Br)ccc1NC(=O)c1ccccc1-c1ccccc1	-0.8	nt	-14.1	8.6	11.5%
COc1cc2nc(C)sc2cc1SC	-5.2	-8.3	-36.2	nt	-2.7%
O=C(COc1ccc2ccccc2c1Br)Nc1ncn[nH]1	2.5	53.7	2.9	-0.9	-5.5%
O=C(Nc1ccc(Cl)cn1)c1ccc(COCC(F)(F)C(F)F)o1	3.4	0.3	-9.0	5.1	-8.4%
CCN(Cc1ccccc1)C(=O)Cn1c(=O)n(CC(=O)NCc2ccco2)c(=O)c2sccc21	1.7	-0.7	-2.0	1.4	-16.0%
C=CCN1C(=O)C2(C(C#N)=C(N)Oc3n[nH]c(CCC)c32)c2ccccc21 (stereo unspecified)	-4.7	-3.3	-18.8	2.2	-0.7%
CCOc1cccc2cc(-c3csc(NC(=O)CCC(=O)NCCN4CCCCC4C)n3)c(=O)oc12 (stereo unspecified)	-4.6	-2.5	nt	-6.7	0.5%
Cc1ccc(-c2nnc(-c3ccc(NC(=O)Cc4cccs4)cc3)o2)cc1	-33.9	7.0	-47.2	0.1	-2.0%
O=C(Nc1cccc2oc(=O)ccc12)c1ccc([N+](=O)[O-])cc1[N+](=O)[O-]	-11.3	77.0	-5.3	-4.7	14.3%

Following part.
SMILES	Arbovirus inh	Mtb bLac sens	YopH inh	RecA splice inh	Mtb H37Rv	others
Cc1cc2oc(C(=O)NC3CCS(=O)(=O)C3)cc(=O)c2cc1C (stereo unspecified)	nt	3.1	nt	1.9	nt
CCOC(=O)Cn1cnc2scc(-c3ccc(C)c(C)c3)c2c1=O	nt	68.3	nt	-0.3	nt
COc1ccc(C(=O)OCC(=O)C(C)(C)C)cc1S(=O)(=O)N(C)CCc1cccnc1	nt	0.5	nt	-0.6	nt
Cc1nn(C)c(C)c1C(C)NC(=O)c1cc(COc2ccc(F)c(F)c2)on1 (stereo unspecified)	nt	3.1	nt	0.1	nt
CCOC(=O)Nc1ccc2c(c1)N(C(=O)CCN(C)C)c1ccccc1S2	-5.5	92.4	4.0	5.0	-3.3%
Cc1ccc(OCc2ccc(C(=O)Nc3c(C)nn(Cc4c(F)c(F)c(F)c(F)c4F)c3C)o2)c([N+](=O)[O-])c1	-18.4	12.1	-7.7	5.2	4.6%
O=C(CCN1CCN(c2ccccn2)CC1)Nc1ccc(F)cc1	0.0	-3.1	-49.4	-1.9	4.4%
CCOC(=O)C(C)Sc1ccc2nnc(CCNS(=O)(=O)c3ccc(C)cc3)n2n1 (stereo unspecified)	-1.2	-6.3	nt	-0.4	7.0%
Cc1ccc2c(c1)CC1(CN2C)C(=O)NC(=O)N(c2cc(C)ccc2C)C1=O (stereo unspecified)	1.9	-2.3	-24.7	-0.3	-0.1%
O=P(O)(CCc1ccccn1)CN1CCCCC1	-2.9	1.9	-11.0	nt	-3.1%
CC1CCN(c2cc(C#N)c(C#N)cc2[N+](=O)[O-])CC1	-6.9	5.4	-16.0	0.4	0.5%
Cc1ccc(C)c(N2CCN(S(=O)(=O)c3csc(C(N)=O)c3)CC2)c1	nt	-0.7	nt	5.7	nt
COc1ccccc1CCNC(=O)CSc1ccc(-c2cccs2)nn1	1.3	-12.5	nt	0.4	-1.4%
Cn1ncc(C(=O)Nc2ccc(Cl)cc2)c1C(F)(F)F	nt	-8.9	nt	0.3	-1.4%
C=C(C)C(=O)OCC(=O)NCc1ccccc1	0.9	-5.7	nt	-3.7	1.6%
O=C(CN1CCCCC1)c1ccc(F)cc1	nt	-10.4	nt	-1.1	-1.8%
O=C(NCc1ccc(Cl)cc1)C1C2C=CC3(CN(Cc4cccnc4)C(=O)C13)O2 (stereo unspecified)	6.3	-18.8	-6.0	-1.0	-11.2%
CC(C)(C)Sc1ccc(/C=N/O)cc1[N+](=O)[O-]	-2.0	0.1	nt	0.0	-1.0%
COCCn1c(N)c(N(Cc2ccccc2)C(=O)c2ccc(-c3ccc(Cl)cc3)o2)c(=O)[nH]c1=O	nt	-14.4	nt	1.4	nt
CCOC(=O)c1ccc(NC(=S)N2CCN(CCN=CC3=C(O)CC(c4ccccc4)CC3=O)CC2)cc1 (stereo unspecified)	nt	-1.5	nt	2.0	8.2%
CCC1CCCCN1Cc1c(O)ccc2c(=O)c(-c3ccccc3OC)coc12 (stereo unspecified)	nt	-1.5	nt	-1.3	nt
Cc1nn(-c2cc(C)c3ccccc3n2)c2c1CCC2	9.3	9.9	-21.3	1.4	-3.0%
O=C(CCC(F)(F)F)N1CCC(CO)(CCc2ccccc2)CC1	nt	5.0	nt	0.3	nt

Sorted by formula weight (descending): part of the list above
SMILES	Arbovirus inh	Mtb bLac sens	YopH inh	RecA splice inh	Mtb H37Rv	others
CCOC(=O)C(C)Sc1ccc2nnc(CCNS(=O)(=O)c3ccc(C)cc3)n2n1 (stereo unspecified)	-1.2	-6.3	nt	-0.4	7.0%
Cc1ccc(C)c(N2CCN(S(=O)(=O)c3csc(C(N)=O)c3)CC2)c1	nt	-0.7	nt	5.7	nt
Cn1ncc(C(=O)Nc2ccc(Cl)cc2)c1C(F)(F)F	nt	-8.9	nt	0.3	-1.4%
CC1CCN(c2cc(C#N)c(C#N)cc2[N+](=O)[O-])CC1	-6.9	5.4	-16.0	0.4	0.5%
C=C(C)C(=O)OCC(=O)NCc1ccccc1	0.9	-5.7	nt	-3.7	1.6%
O=C(CN1CCCCC1)c1ccc(F)cc1	nt	-10.4	nt	-1.1	-1.8%

Screening data from PubChem BioAssay.
